UCH37 inh – inhibitors of human UCH37 deubiquitinase, primary screen, biochemical, Ub-AMC cleavage, fluorescence; purified proteasome/UCH37; inhibition, % (concentration not given with the values); Ubiquitin carboxyl-terminal hydrolase isozyme L5 (Homo sapiens), Q9Y5K5; 330,000 tested, 0.33% active;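 active = mean of two replicates above 20%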;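 also: 0% = compound-free wells with enzyme and 100% = wells lacking proteasome; stock transfer was 100 nL into about 20 µL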
Target sequence (Q9Y5K5 whole entry, looked up): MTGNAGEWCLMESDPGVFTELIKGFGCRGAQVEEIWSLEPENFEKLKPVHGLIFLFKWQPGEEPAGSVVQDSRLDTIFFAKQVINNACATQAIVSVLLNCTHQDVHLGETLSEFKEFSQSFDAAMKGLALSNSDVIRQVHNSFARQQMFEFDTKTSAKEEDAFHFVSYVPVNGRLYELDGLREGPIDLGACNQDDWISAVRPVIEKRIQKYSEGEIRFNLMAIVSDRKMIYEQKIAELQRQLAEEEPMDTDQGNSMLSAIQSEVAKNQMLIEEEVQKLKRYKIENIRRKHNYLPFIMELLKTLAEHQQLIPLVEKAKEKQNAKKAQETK
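Material: human UCH37 enzyme supplied as purified proteasome complex / Amount: 0.15 nM proteasome as dispensed / Buffer or medium: pH 7.4 Tris-HCl (50 mM) with ovalbumin, ATP-MgCl2, DTT / Times: preincubation 30 min, reaction 25 min, room temperature / Technique: AMC fluorescence from Ub-AMC cleavage, excitation 355 nm, emission 460 nm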
E coli growth – E. coli growth inhibition, primary screen, OD600; Escherichia coli growth, 23 h; active compounds read low; OD600 absorbance (no concentration beside the values); 330,000 tested, 0.21% active;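 active = OD600 absorbance below the run mean of sample wells minus 3.6 SD, in any replicate, cut at about 0.56 in these data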;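 also: stock transfer was 300 nL into about 60 µL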
Numbers without * were called inactive. This is a subset, so the mix of outcomes need not match the whole.

Sample of the layout, 3 compounds:
SMILES	UCH37 inh	E coli growth
CC12CN3CCN(CC(C3)C1=NN=Cc1cccc([N+](=O)[O-])c1)C2	1.9	0.713
COc1ccc(C(=O)Nc2cccc(C(C)=NNC(=O)c3ccoc3C)c2)cc1OC	-0.5	0.734
Cc1snc(SCC(=O)NN=C(N)COc2ccc(F)cc2)c1C#N	-0.3	0.709

The listing (from the top)
SMILES	UCH37 inh	E coli growth
CC12CN3CCN(CC(C3)C1=NN=Cc1cccc([N+](=O)[O-])c1)C2	1.9	0.713
COc1ccc(C(=O)Nc2cccc(C(C)=NNC(=O)c3ccoc3C)c2)cc1OC	-0.5	0.734
Cc1snc(SCC(=O)NN=C(N)COc2ccc(F)cc2)c1C#N	-0.3	0.709
NC(=S)NN=Cc1ccc2c(c1)OCCO2	5.4	0.643
C=CCc1cccc(C=NNC(=O)CNc2ccccc2OC)c1O	-0.9	0.657
CC(=NNC(=O)CNc1cccc(C(F)(F)F)c1)c1cccc(Br)c1	1.9	0.637
COc1ccc(S(=O)(=O)NN=C(C)c2ccc(Cl)cc2)cc1	1.5	0.647
COc1cc(C=NNC(=O)c2cccnc2)ccc1OS(=O)(=O)c1ccc(C)cc1	5.4	0.697
Cn1c(C=NNC(=O)c2ccccc2Br)nc2ccccc21	-16.8	0.659
C(=NN1CCN(C2c3ccccc3-c3ccccc32)CC1)c1cccnc1	6.2	0.746
CN(C)C(=NO)c1c(Cl)cccc1Cl	3.3	0.658
Cc1cc(OC(C)C(=O)NN=CCC(C)c2ccccc2)ccc1Cl (stereo not drawn)	1.1	0.698
COc1ccc(C(=O)NN=c2oc3ccccc3cc2C(N)=O)cc1	6.1	0.705
CCOC(=O)NN=Cc1ccc(F)cc1F	-0.8	0.703
CCOc1cc(C=NNC(=O)c2ccc(CSc3nncn3C)cc2)ccc1OCC(=O)N1CCOCC1	2.7	0.684
COc1ccc(-c2cc(C(F)(F)F)c(C#N)c(SCC(=O)O)n2)cc1OC	-52.5	0.685
CC(=NNS(=O)(=O)c1ccccc1)c1ccc2c(c1)OCO2	4.0	0.716
Cn1ncc(C#N)c1N=CN1CCCCCC1	1.5	0.686
Cc1c(C=NNC(=O)c2c[nH]c3ccccc23)cnn1C	3.5	0.675
COCCNC(=S)NN=C(C)c1cc2ccccc2o1	16.8	0.716
CC(=NOC(=O)NC1CCCCC1)c1sc(-c2ccccc2)nc1C	0.3	0.698
COc1ccc(OC)c(S(=O)(=O)NN=C(C)c2ccc3c(c2)OCO3)c1	0.6	0.698
Cn1c(=O)c2c(ncn2CC(=O)NN=C/C=C/c2ccco2)n(C)c1=O	16.2	0.677
CCN(CC)S(=O)(=O)c1ccc(NN=C(C)c2cccnc2)nc1	9.1	0.636
COc1ccc(C=NNC(=O)c2cccc(Br)c2)cc1CSc1ccccn1	-16.5	0.709

Other records follow:
SMILES	UCH37 inh	E coli growth
COc1ccc(C=NNC(=O)c2ccc(Br)o2)cc1Cn1cc([N+](=O)[O-])cn1	0.5	0.66
O=C(Cn1cnc([N+](=O)[O-])n1)NN=Cc1ccc2ccccc2c1	5.1	0.744
C=CCOc1ccc(C=NNC(=O)c2c(C)nc3ccc(Cl)cn23)cc1	3.4	0.681
COc1ccc(C=NNC(=O)c2nn(-c3ccc(Cl)cc3)c(=O)c3c(N)scc23)cc1	11.4	0.728
COc1cc(C=NNC(N)=S)ccc1OCC(=O)Nc1ccc(C)cc1	-0.4	0.776
Cc1nc(C(=O)NN=Cc2[nH]ncc2Br)cs1	1.7	0.685
CCOc1ccc(C=NNC(=O)Cc2ccccc2)cc1CN1CC2CC(C1)c1cccc(=O)n1C2 (stereo not drawn)	4.2	0.657
COc1cccc(C(=O)NN=C(C)CC(=O)Nc2ccc(N(C)C)cc2)c1	3.1	0.611
CCN(CC)c1ccc(C=NOCC(=O)N2CCCc3ccccc32)cc1	-0.7	0.682
O=C(NN=Cc1cc([N+](=O)[O-])ccc1O)c1ccc(COc2ccc3c(c2)CCC3)o1	4.4	0.723
CC(=NNC(=O)OC(C)(C)C)c1ccco1	0.3	0.657
COc1cc(C=NNC(=S)NN=Cc2cc(OC)c(OC)c(OC)c2)cc(OC)c1OC	5.1	0.722
CC1=NNC(=O)C1CCC(=O)NN=Cc1ccccc1 (stereo not drawn)	4.9	0.67
O=[N+]([O-])c1ccccc1/C=C/C=NNc1ccc(S(=O)(=O)Nc2ccc(Cl)cc2)cc1[N+](=O)[O-]	11.8	0.745
Cc1cccc(C(=O)ON=C2CCCc3ccccc32)c1	3.5	0.669
S=c1[nH]nc(-c2cc(-c3ccccc3)n[nH]2)n1N=Cc1ccc(Cl)cc1	5.5	0.708
CC(=NNC(=O)C1CC1)c1ccc(Cl)cc1	3.2	0.64
Cc1ccsc1C=NNC(=O)c1cccc(S(=O)(=O)Nc2ccccc2Cl)c1	7.2	0.681
CON=C(c1nonc1N)N1CCN(c2ccc(Cl)cc2[N+](=O)[O-])CC1	3.2	0.665
CC(=NNC(=O)CCc1c(C)n[nH]c1C)c1ccc([N+](=O)[O-])cc1	5.7	0.644
CCOC(=O)C1(CC(C)=NNC(N)=O)CC(C)(C)OC1=O (stereo not drawn)	3.1	0.662
Oc1ccc(C=NNc2ccnc3cc(Cl)ccc23)c(O)c1	10.8	0.663
COc1cc(C=NNc2nc(Nc3ccccc3)nc(N3CCCCC3)n2)ccc1OCC(=O)O	4.6	0.722
CCCCCCOc1ccc(N2C(=O)CC(S/C(N)=N/N=C(C)c3cccs3)C2=O)cc1 (stereo not drawn)	1.9	0.719
Cc1ccc(-c2cc(C(=O)NN=C/C=C/c3ccccc3)n[nH]2)s1	2.9	0.694

Four structures out of the list, sorted by molecular weight, falling:
SMILES	UCH37 inh	E coli growth
Cc1ccsc1C=NNC(=O)c1cccc(S(=O)(=O)Nc2ccccc2Cl)c1	7.2	0.681
COc1cccc(C(=O)NN=C(C)CC(=O)Nc2ccc(N(C)C)cc2)c1	3.1	0.611
CCN(CC)c1ccc(C=NOCC(=O)N2CCCc3ccccc32)cc1	-0.7	0.682
Cc1ccc(-c2cc(C(=O)NN=C/C=C/c3ccccc3)n[nH]2)s1	2.9	0.694

Following part:
SMILES	UCH37 inh	E coli growth
NS(=O)(=O)c1ccc(NN=Cc2ccc[nH]2)c([N+](=O)[O-])c1	12.8	0.687
CC1=CC(=NOS(=O)(=O)c2ccccc2)C=CC1=O	0.0	0.733
CCOC(=O)C1CCCN(CC(O)=C(C#N)c2nc(-c3ccc(Cl)cc3)cs2)C1 (stereo not drawn)	3.6	0.635
CCOc1cc(C(=O)NN=Cc2cn(CC)nc2C)cc(OCC)c1OCC	-24.5	0.684
NC(=S)NN=Cc1ccccc1OC(=O)/C=C/c1ccccc1	0.1	0.674
O=C(NN=Cc1cc(Cl)cc([N+](=O)[O-])c1O)NC12CC3CC(CC(C3)C1)C2	12.0	0.73
CC(=NO)c1ccc2c3ccccc3n(C)c2c1	-50.4	0.682
Cc1cc(C)nc(SCC(=O)NN=Cc2cccnc2)n1	1.0	0.716
CCC(=NNC(=O)c1ccc(N2CCCC2=O)cc1)c1ccccc1	-0.8	0.676
O=S(=O)(N=C(c1ccccc1)N1CCOCC1)c1ccc(Br)cc1	0.8	0.728
COc1cccc(C=NNC(=O)CNC(=O)c2ccncc2)c1O	2.2	0.659
CCCCCCC(=O)NN=Cc1ccc(Br)cc1	4.4	0.679
S=c1[nH]nc(-c2ccco2)n1N=Cc1ccccc1	7.0	0.646
N#Cc1c(Cl)nc(NN=Cc2ccccc2)c(Cl)c1Cl	3.8	0.727
CC(=NNC(=O)C(O)(c1ccccc1)c1ccccc1)c1ccc([N+](=O)[O-])o1	7.9	0.709
CCC(C)=NNc1nc2c(c(=O)[nH]c(=O)n2C)n1CCc1ccccc1	-0.5	0.668
CCOc1ccc(C(=O)NN=Cc2cc([N+](=O)[O-])cs2)cc1	7.6	0.703
NC(N)=NN=Cc1ccc(Br)cc1	3.8	0.634
Cc1ccc(C=NNC(=O)CNC(=O)c2ccc(S(=O)(=O)N3CCCC3)cc2)o1	4.8	0.724
Nc1nonc1C(=NO)N1CCN(CCO)CC1	2.6	0.736
Cc1cccc(C(=O)NN=Cc2ccncc2)c1	1.9	0.669
COc1ccc(OC)c(C=NNC(=O)CCN2CCN(C(c3ccccc3)c3ccccc3)CC2)c1	-22.1	0.731
COc1cccc(C(=O)NN=Cc2ccc(Oc3ccc([N+](=O)[O-])cn3)c(OC)c2)c1	3.6	0.7
CC(C)(C)c1ccc(C(=O)NN=Cc2ccccn2)cc1	1.9	0.685
Cc1cc(C)nc(SCc2ccc(C(=O)NN=C3CC(C)CC(C)(C)C3)cc2)n1 (stereo not drawn)	3.7	0.667

The listing continues:
SMILES	UCH37 inh	E coli growth
O=[N+]([O-])c1cc(C=NNc2nc(N3CCOCC3)nc(N3CCOCC3)n2)ccc1Cl	4.1	0.72
CCOC(=O)NN=Cc1cccnc1	0.5	0.64
CCOc1cc(C=NO)cc(Br)c1OCc1ccc(Cl)cc1	1.2	0.699
C=CCOc1ccc(C=NO)cc1Cl	2.6	0.673
CCCn1c(SCC(=O)N2CCc3ccccc32)nnc1-c1ccncc1	-0.5	0.714
CC(=NNC(=O)c1cccc(Cl)c1)c1cccc(NC(=O)C(C)C)c1	2.1	0.704
Cc1cc(C=NN2CCN(C)CC2)c(C)n1-c1ccc(Cl)cc1	0.1	0.676
C/C(C=NNC(=O)CSc1nnc(SCc2ccc(C)cc2)s1)=C/c1ccco1	4.4	0.727
N#CC(=C(O)c1ccco1)c1ccccn1	10.1	0.744
Cc1c(C(=O)NN=Cc2ccncc2)no[n+]1[O-]	3.5	0.657
Cc1cccc(C=Nn2c(-c3ccncc3)n[nH]c2=S)c1	5.0	0.718
COc1ccc(NS(=O)(=O)c2cc(NC(=NS(=O)(=O)c3ccccc3)c3ccc(F)cc3)ccc2Cl)cc1	1.1	0.666
Cc1cc(C)nc(N=C(N)Nc2cc([N+](=O)[O-])ccc2C)n1	-1.2	0.653
COc1ccc(NCC(=O)NN=C2CCCC(C)C2)cc1 (stereo not drawn)	6.4	0.694
Cc1ccc(NC(=O)CC2S/C(=N/N=C\C=C\c3ccccc3)NC2=O)cc1Cl (stereo not drawn)	6.1	0.717
CN(C)C=Nc1sc2c(c1C(N)=O)CCCC2	7.1	0.719
CC(C)c1ccc(C=NNC(=O)c2c(Cl)cnn2C)cc1	1.9	0.7
CN(N=Cc1ccc(O)cc1O)c1nc(-c2ccccc2)cc(-c2ccccc2)n1	4.3	0.67
Cc1cccc(C)c1NC(=S)NN=Cc1c(Cl)cccc1Cl	5.8	0.731
Cc1ccc(C=NNc2ccc(F)cc2)s1	-0.1	0.664
CCOC(=O)c1cccc2c1-c1ccccc1C2=NO	3.3	0.683
NC(=NOC(=O)C1CC1)c1ccc([N+](=O)[O-])s1	7.7	0.578
Cn1cccc1-c1cc(C(=O)NN=Cc2cccc(O)c2)[nH]n1	0.0	0.68
O=C(N=C1c2ccccc2CN1c1ccccc1)Nc1ccccc1	2.2	0.699
O=C(CNC(=O)c1ccncc1)NN=Cc1cc(Br)ccc1OCc1ccccc1	2.7	0.666

The list continues.
SMILES	UCH37 inh	E coli growth
CCN(CCC#N)c1ccc(C=NNc2nc(C)cc(=O)[nH]2)c(C)c1	-20.3	0.731
CC(C)C(=O)NN=Cc1ccc(OCc2ccccc2)cc1	4.4	0.684
Cc1cccc(C=NNC(=O)c2ccc(F)cc2)n1	0.6	0.636
O=C(ON=C(c1ccccc1)c1ccncc1)c1ccccc1[N+](=O)[O-]	2.6	0.706
COc1ccc(C=NNC(=O)c2cc(-c3cccn3C)n[nH]2)cc1OC	3.2	0.703
CCn1c(O)c(C=NN=C2CCCCC2)c2cc(C3=NNC(=O)CC3)ccc21	-5.0	0.678
Cc1ccc(S(=O)(=O)N=C(c2ccccc2)N2CCOCC2)cc1	4.6	0.696
C=C(C)CNC(=S)NN=Cc1ccc(N2CCOCC2)cc1	-197.8	0.695
O=C(O)c1ccccc1C=NNC(=O)c1cc(-c2ccco2)nc2ccccc12	-218.2	0.722
Cc1cc(C)c(S(=O)(=O)NN=Cc2ccc3c(c2)OCO3)c(C)c1	2.1	0.743
Cc1ccccc1OCc1nc2ccccc2c(=O)n1N=Cc1ccco1	-3.2	0.727
CC(=NNC(=O)C(C)Sc1ccccc1)C(C)(C)C (stereo not drawn)	-1.2	0.656
CN1CCN(CCC(=O)NN=Cc2cc([N+](=O)[O-])ccc2O)CC1	9.8	0.633
Cc1cc(C=NNC(=O)CC#N)c(C)n1-c1ccc([N+](=O)[O-])cc1	7.0	0.712
COCc1cc(C=NNC(=O)Cc2ccc(Cl)cc2)ccc1OC	2.3	0.247*
Fc1ccc(C=NNc2cccc(F)c2)cc1	1.6	0.688
Fc1ccccc1C=NNC(=S)Nc1ccc(Cl)cc1Cl	3.0	0.678
N#CC(=C(O)C(F)(F)F)c1nnc2n1CCCCC2	0.1	0.691
COc1ccc(C(C)=NNC(=O)c2nnn(-c3nonc3N)c2-c2cccs2)cc1	-246.9	0.676
O=C(NN=Cc1ccc(Sc2ccccn2)o1)c1cccc(Br)c1	-0.6	0.64

Single values from the list.
Result of C=C(C)CNC(=S)NN=Cc1ccc(N2CCOCC2)cc1 in UCH37 inh: -197.8
Result of COc1ccc(C(C)=NNC(=O)c2nnn(-c3nonc3N)c2-c2cccs2)cc1 in E coli growth: 0.676

Quoted at random: 4 compounds from above.
SMILES	UCH37 inh	E coli growth
O=C(ON=C(c1ccccc1)c1ccncc1)c1ccccc1[N+](=O)[O-]	2.6	0.706
Fc1ccc(C=NNc2cccc(F)c2)cc1	1.6	0.688
COc1ccc(C=NNC(=O)c2cc(-c3cccn3C)n[nH]2)cc1OC	3.2	0.703
Cc1cc(C)c(S(=O)(=O)NN=Cc2ccc3c(c2)OCO3)c(C)c1	2.1	0.743

Bioassay records: PubChem, ICCB-Longwood Screening Facility, Harvard Medical School
